# Rce1 inh = blocks yeast Ras-converting enzyme. Q03530. yeast membranes, quenched prenylated peptide cleavage fluorescence. calls only. actives 0.27% (n = 290,000);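 active means fall in fluorescence gain of 50% or more versus controls, with final raw signal at or below 3038400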;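 further: plate controls were neutral control wells for no effect and wells lacking membranes for full effect; tested at 10 µM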
# eIF4H inh = inhibitors of RNA binding by human eIF4H; eIF4H fluorescence polarization binding assay; actives 0.94% (n = 290,000); inhibition, % at 35 µM;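 active means 50% or more with normal probe brightness, or confirmed in later tests; about a fifth of its hits are not listed in these tables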;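 further: calls also rest on retests at 20 µM and on dose response follow-up; 0% = protein and probe with vehicle and 100% = probe without protein; strong numbers were not always called active; many hits fall short of the cut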
# PABP FP inh = PABP-poly(A) binding inhibition; P11940; PABP-poly(A) RNA binding, fluorescence polarization; inhibition, % at 35 µM; actives 1% (n = 290,000); AID 2014;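 active means 50% or more with normal probe brightness, or confirmed in later tests; about a fifth of its hits are not listed in these tables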;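 further: calls also rest on retests at 20 µM and on dose response follow-up; controls were probe without protein and protein plus probe with vehicle; some compounds called inactive have numbers as strong as hits; many hits fall short of the cut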
# Target sequence (P11940 whole entry, looked up): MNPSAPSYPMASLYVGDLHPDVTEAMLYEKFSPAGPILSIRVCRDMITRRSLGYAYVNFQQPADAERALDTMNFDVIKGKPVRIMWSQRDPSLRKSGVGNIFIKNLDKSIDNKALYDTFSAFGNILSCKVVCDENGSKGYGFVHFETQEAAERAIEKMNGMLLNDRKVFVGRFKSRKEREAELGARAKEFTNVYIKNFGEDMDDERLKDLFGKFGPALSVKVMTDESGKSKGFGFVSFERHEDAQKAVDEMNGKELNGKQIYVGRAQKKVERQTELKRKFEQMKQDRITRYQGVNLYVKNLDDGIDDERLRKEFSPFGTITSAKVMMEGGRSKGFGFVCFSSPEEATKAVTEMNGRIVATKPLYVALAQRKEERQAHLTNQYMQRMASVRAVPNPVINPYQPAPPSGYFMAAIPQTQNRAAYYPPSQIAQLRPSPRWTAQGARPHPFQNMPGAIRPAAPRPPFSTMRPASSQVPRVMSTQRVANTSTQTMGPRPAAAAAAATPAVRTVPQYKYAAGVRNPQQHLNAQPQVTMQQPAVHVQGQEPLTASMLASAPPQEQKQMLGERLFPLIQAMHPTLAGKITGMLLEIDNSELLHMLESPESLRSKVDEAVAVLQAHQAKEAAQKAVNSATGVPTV
# Env fusion inh = inhibitors of HIV Env-mediated cell fusion. HeLa-JRFL Env/CEM21 cell fusion, luciferase. inhibition, % at 12.3 µM. actives 1.1% (n = 360,000). AID 651610;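 active means mean replicate inhibition score of at least 50 and every replicate individually at or above 50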;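 further: 0% = plate neutral controls and 100% = maraviroc near 300 nM; one replicate is shown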
# MT1-MMP act inh = MT1-MMP (human) activation inhibition; GFP/RFP ratio change, % at 20 µM; actives 0.061% (n = 360,000); HT1080 RFP-PRO-GFP cells, GFP/RFP ratio fluorescence, overnight; percent of plate control window, DMSO zero; AID 651647;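 active means GFP/RFP ratio change of at least 30% with cell ATP level not reduced by more than half and red fluorescence within 50% of control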; further: strong numbers were not always called active
#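 Assay system: HT1080 RFP-PRO-GFP cells | Dosing: 20 µM single dose, 1% DMSO | Incubation: Cells overnight before dosing, compound overnight, 37 °C, 5% CO2 | Evaluation: GFP/RFP fluorescence ratio | Control set: DMSO-only wells and HT1080 RFP-L50D-GFP cell wells as references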
# CSC inhib = blocks cancer stem cells. inhibition, % at 7.5 µM. AID 2717. cancer stem cell-like cells viability, luminescence. actives 1.1% (n = 300,000);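 active means mean at 75% or more and at least half the replicates too; tested in HMLE shEcad cells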;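 further: 0% = median of negative and 100% = median of positive control wells; the first replicate is given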
# Yeast UUG start = yeast start codon fidelity modulation; S. cerevisiae UUG-firefly luciferase reporter, luminescence/redox ratio; AID 602363; activity score, % at 18.7 µM; actives 0.13% (n = 350,000);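 active means replicate mean at a twofold rise or more, about +100% in these data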;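 further: firefly luciferase made from a UUG start codon reports start codon fidelity; reporter light over untreated wells divided by growth signal over untreated wells; some hits fall short of that in this replicate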
# MT1-MMP act inh RFP = recorded beside MT1-MMP act inh, whose call it bears; RFP signal change, %; measured here: RFP expression control read;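 0 = vehicle wells; hits needed this value within 50% of zero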
# Starred values were filed as active, the others as inactive; i = inactive; . = no result given. These rows are one share of the data, so the mix of outcomes need not match the whole.
SMILES	Rce1 inh	eIF4H inh	PABP FP inh	Env fusion inh	MT1-MMP act inh	MT1-MMP act inh RFP	CSC inhib	Yeast UUG start
CCCNC(=O)C1(CC2CC(c3ccccc3)=NO2)CCN(C(=O)OC(C)(C)C)CC1 (configuration not stated)	i	.	.	-21	0	1	-4	5
CCOC(=O)C1=C(N)OC2=C(C(=O)CC(C)(C)C2)C1c1ccc(CC)s1 (configuration not stated)	i	1	10	23	0	-2	-2	.
Cn1c(=O)c2cc(NC(=O)NCCc3ccccc3)ccc2n1Cc1cccc(C(F)(F)F)c1	.	.	.	7	7	-20	.	-8
CC1CCCCN1C(=O)Cn1cc(C(=O)c2ccco2)c2ccccc21 (configuration not stated)	i	3	-1	.	1	-1	-23	4
COCC(=O)OCc1cc2cccc(C)c2[nH]c1=O	i	0	8	-32	-5	-3	-4	.
COc1ccc(C(=O)NCc2cc3ccccc3n2C)cc1	i	11	-2	-52	2	0	-7	-19
CCN(CC)C(=O)c1sc2nc(-c3cccs3)cc(-c3ccc(Cl)cc3)c2c1N	i	20	18	.	-38	-11	-25	-3
S=C(c1ccc(-c2cc(Cl)ccc2Cl)o1)N1CCCCC1	i	-11	8	.	0	-4	25	.
O=C(CN1C(=O)C2C3C=CC(C3)C2C1=O)NCC1COc2ccccc2O1 (configuration not stated)	i	-7	3	.	1	3	.	-4
CCCC12CN(C(=O)c3ccco3)CC(CCC)(CN(C(=O)c3ccco3)C1)C2=O	i	1	12	4	-3	-3	-11	-16
C#CCOCCOCCOCCNc1nc(N2CCN(C(=O)CCCCCCCCCCNC(=O)[C@H](CO)n3cc(CCCSC)nn3)CC2)nc(N2CCN(C(=O)CCCCCCCCCCNC(=O)[C@H](CO)n3cc(CCCSC)nn3)CC2)n1	i	.	.	-14	9	4	-19	-20
CCN(CC)S(=O)(=O)c1ccc(Cl)c(NC(=O)CCCCl)c1	i	-8	3	8	-1	1	12	.
COc1ccccc1-c1nnc(SCC(=O)Nc2cccnc2Cl)n1C	.	.	.	.	-2	1	-16	-15
COc1cc(OC)cc(C(=O)N=c2sc3ccccc3n2C)c1	i	3	-10	-38	-1	2	3	.
COc1ccc(CN(C(=O)c2snc(C(N)=O)c2N)C(C(=O)NC2CCCC2)c2ccco2)cc1 (configuration not stated)	i	-13	7	16	-1	-2	-5	3
O=C(NCCCn1ccnc1)/C(=C/c1ccco1)NC(=O)c1ccccc1	i	.	.	2	1	1	-14	4
CS(=O)(=O)N(CCCC(=O)N1CCCCCC1)c1cccc(Cl)c1	i	13	-6	17	-3	-5	-8	-3
CCOC(=O)C1CCCN(C(=O)c2cccc([N+](=O)[O-])c2C)C1 (configuration not stated)	i	3	27	6	-4	-2	-1	.
COc1ccc(-n2c(-c3ccc(Cl)cc3)c[n+]3c2CCCCC3)cc1	i	2	5	-7	2	-21	20	-1
O=C(N/N=C/c1ccc(F)cc1)c1sccc1OCc1ccc(F)cc1	i	-7	4	.	4	-9	44	-16
CN(C(=O)c1ccc(F)c(S(=O)(=O)N2CCOCC2)c1)C1CCCCC1	.	.	.	.	0	2	-10	-9
O=C(O)c1cccc(S(=O)(=O)Nc2ccc(Oc3ccccc3)cc2)c1	.	.	.	7	3	4	15	6
CCOc1ccc(CN2C(=O)CCC2(C)C(=O)NCc2cccnc2)cc1 (configuration not stated)	i	-3	-11	-24	3	4	-9	-12
Cc1cccc(N2C(=O)CC(Sc3ncn[nH]3)C2=O)c1 (configuration not stated)	i	0	-8	22	10	5	8	-2
C=CCNC(=O)c1onc(CSc2nc3ccccc3[nH]2)c1C(=O)NCC=C	i	-1	-3	-25	8	-1	0	-8
CC1=C(C(=O)N(C)C)CC(CC(=O)NC2CC2)C(=O)N1CCC1=CCCCC1 (configuration not stated)	.	.	.	-55	9	9	.	11
Cc1ccc(C(=O)CN2C(=O)C(=O)N(Cc3ccccc3)C2=O)cc1	.	8	3	1	-6	-4	-14	.
COc1cc(-n2c(C)nc3cc(C(=O)NCc4ccco4)ccc32)cc(OC)c1OC	i	3	2	.	3	2	-19	-13
CCCCCCC1CC(CSc2ncn[nH]2)OC1=O (configuration not stated)	i	0	-12	.	0	-1	1	-14
Cc1nc(SCC(=O)N2CCOCC2)c2c(=O)n(C)c(=O)n(C)c2n1	i	-2	-8	9	-3	3	-11	-15

# Filtered by structure: the entries above containing a thiophene ring, fused or not.
SMILES	Rce1 inh	eIF4H inh	PABP FP inh	Env fusion inh	MT1-MMP act inh	MT1-MMP act inh RFP	CSC inhib	Yeast UUG start
CCOC(=O)C1=C(N)OC2=C(C(=O)CC(C)(C)C2)C1c1ccc(CC)s1 (configuration not stated)	i	1	10	23	0	-2	-2	.
CCN(CC)C(=O)c1sc2nc(-c3cccs3)cc(-c3ccc(Cl)cc3)c2c1N	i	20	18	.	-38	-11	-25	-3
O=C(N/N=C/c1ccc(F)cc1)c1sccc1OCc1ccc(F)cc1	i	-7	4	.	4	-9	44	-16

# (listing goes on)
SMILES	Rce1 inh	eIF4H inh	PABP FP inh	Env fusion inh	MT1-MMP act inh	MT1-MMP act inh RFP	CSC inhib	Yeast UUG start
Cc1ccccc1NP(=O)(c1ccccc1)c1nc2ccccc2s1 (configuration not stated)	i	-4	-14	9	-1	3	-8	.
CC1(C(=O)Nc2ccc3c(c2)OCCO3)CCC(=O)N1C1CCN(Cc2ccccc2)CC1 (configuration not stated)	.	.	.	-2	3	4	.	-7
COc1ccc(-c2ccc([C@H]3[C@@H]4C=CCC[C@@]4(C)C(=O)N3Cc3ccccc3)c(F)c2)cc1OC	i	0	3	20	-5	-6	30	-22
COC(=O)c1c(C)noc1-c1cc(C)on1	i	-6	1	.	0	1	1	-15

# Reprinted at random: 3 entries already listed
SMILES	Rce1 inh	eIF4H inh	PABP FP inh	Env fusion inh	MT1-MMP act inh	MT1-MMP act inh RFP	CSC inhib	Yeast UUG start
COc1ccc(-c2ccc([C@H]3[C@@H]4C=CCC[C@@]4(C)C(=O)N3Cc3ccccc3)c(F)c2)cc1OC	i	0	3	20	-5	-6	30	-22
COC(=O)c1c(C)noc1-c1cc(C)on1	i	-6	1	.	0	1	1	-15
Cc1ccccc1NP(=O)(c1ccccc1)c1nc2ccccc2s1 (configuration not stated)	i	-4	-14	9	-1	3	-8	.

# 2 of the compounds above, with values under each structure:
# Each structure is followed by: Rce1 inh	eIF4H inh	PABP FP inh	Env fusion inh	MT1-MMP act inh	MT1-MMP act inh RFP	CSC inhib	Yeast UUG start
CC1(C(=O)Nc2ccc3c(c2)OCCO3)CCC(=O)N1C1CCN(Cc2ccccc2)CC1 (configuration not stated)
    .	.	.	-2	3	4	.	-7
COc1ccc(-c2ccc([C@H]3[C@@H]4C=CCC[C@@]4(C)C(=O)N3Cc3ccccc3)c(F)c2)cc1OC
    i	0	3	20	-5	-6	30	-22
